StopGo reporter: lowers the luciferase signal of an FMDV 2A StopGo reporter; Potency, µM (highest dose often 57.9 µM), for the others: top-dose signal change, negative = less light; human cells with a luciferase reporter of 2A StopGo recoding; control for the full effect not named in the record; 1.2% of 410,000 active; active = well fitted falling curve with a large enough effect; inconclusive = small, poorly fitted or top-dose-only effect; inactive = no such curve, though single readings can be large or run the other way; tested in HEK293T cells; further: nearly all actives have a fitted effect of over 45% in size; luciferase light after 4 h
Lassa entry inh: Lassa virus entry inhibition; Potency, µM (titrated, usually from 37.9 µM), inactives show at the highest dose activity change, negative = inhibition, most hits filed as inhibitors; AID 540256; Lassa virus pseudotype entry inhibition, cell reporter; control for the full effect not named in the record; 1.2% of 300,000 active; active means well fitted inhibition curve with a large enough effect; inconclusive means small, poorly fitted or top-dose-only effect, or effect the other way; inactive means flat fitted curve, though single readings scatter; tested in HEK293 cells; further: nearly all actives have a fitted effect of over 50% in size; luciferase read-out
Active calls of the source: *; ? = inconclusive; [ ] = remark or other dose. On the % scale 0 is the no-effect control and ±100 the full control effect; potency means the concentration at half of the fitted maximal effect. This is a subset; the hit share may differ from the screen's.

SMILES	StopGo reporter	Lassa entry inh
Cc1ccc(CNC(=O)Cn2cc(S(=O)(=O)Cc3ccccc3F)c3ccccc32)cc1	-1%	14%[46.1 µM]
Cc1ccc(C)c(NC(=O)C(CC(C)C)N2Cc3ccccc3C2=O)c1 (configuration not stated)	-5%	-6%[46.1 µM]
CC1=C(C(=O)Nc2cc(C)ccc2C)C2(CCCCCC2)OC1=O	-1%	1%[46.1 µM]
COC(=O)c1ccc(Cl)cc1NC(=O)N(Cc1ccc(OC)cc1)C1CCN(C(C)=O)CC1	-6%	12%[46.1 µM]
CNC(=O)Cn1cc(S(=O)(=O)Cc2ccccc2F)c2ccccc21	4%	?
CCn1cc(S(=O)(=O)c2ccccc2)c(=O)c2cc(F)c(N3CCN(c4ccccc4)CC3)cc21	-22%	25%[46.1 µM]
O=C(NCc1ccco1)c1ccc(Cn2c(SCc3ccccc3)nc3cccnc32)cc1	3%	22%[46.1 µM]
CCOc1ccc(NC(=O)N2CCC(CN3CCc4ccccc4C3)CC2)cc1	-5%	15%[46.1 µM]
O=C(NCc1cccc(F)c1)C1CCN(c2nn3cc(-c4ccc(F)cc4)nc3s2)CC1	50%[activator]	12%[46.1 µM]
CC(C)c1ccc(NC(=O)Cn2cc(S(=O)(=O)Cc3cccc(Cl)c3)c3ccccc32)cc1	-4%	-3%[46.1 µM]
Cc1ccc(CNC(=O)C2CCCN(c3nn4cc(-c5ccc(C)cc5)nc4s3)C2)cc1 (configuration not stated)	8%	?
Cc1ccc(CSc2nc3cccnc3n2Cc2ccc(C(=O)NC3CC3)cc2)cc1	38%[activator]	22%[46.1 µM]
Cc1cccc(CNC(=O)c2ccc(Cn3c(SCc4cccc(F)c4)nc4cccnc43)cc2)c1	-19%	-10%[46.1 µM]
CCOC(=O)c1ccc(NC(=O)C2=C(C)C(=O)OC23CCCCCC3)cc1	-12%	-13%[46.1 µM]
COc1ccc(Cl)cc1Nc1ncnc2c1nc1n2CCCC1	0%	?
Cc1cc(C)cc(NC(=O)N2CCC(CN3CCOCC3)CC2)c1	9%	-1%[46.1 µM]
CN1CCN(C(=O)Cn2c(-c3cccs3)cc3ccccc32)CC1	-3%	?
CN(CC(=O)NCc1ccccc1)S(=O)(=O)c1ccc2[nH]c3c(c2c1)CCCC3	-17%	-15%[46.1 µM]
CCN(CC)S(=O)(=O)c1ccc(NC(=O)Cn2ncc3c([nH]c4ccccc43)c2=O)cc1	-18%	-6%[46.1 µM]
CCn1cc(S(=O)(=O)c2ccccc2)c(=O)c2cc(F)c(N3CCCC3)cc21	-20%	-18%[46.1 µM]
O=C(Nc1ccc(F)cc1Cl)C1CCN(c2ncnc3c2nc2n3CCCCC2)CC1	-17%	14%[46.1 µM]
CSc1ncc(C(=O)NCc2ccccc2)c(-c2ccccc2)n1	15%	6%[46.1 µM]
CCCn1c2ccccc2c2cnn(CC(=O)Nc3cc(C)c(Cl)cc3OC)c(=O)c21	7%	2%[46.1 µM]
COc1ccc(C(=O)Nc2ccc(-c3nnc4n3CCCCC4)cc2)cc1	-2%	0%[46.1 µM]
COc1cccc(N2CCN(c3ncnc4c3nc3n4CCCCC3)CC2)c1	11µM*	?
Further entries follow:
SMILES	StopGo reporter	Lassa entry inh
Cc1ccc(-c2cc(C(=O)N3CCN(S(=O)(=O)c4ccc(Br)cc4)CC3)[nH]n2)c(C)c1	-18%	-3%[46.1 µM]
CCCn1cc(S(=O)(=O)c2ccc(OC)cc2)c(=O)c2cc(F)c(N3CCCCCC3)cc21	-23%	?
CCCn1c2ccccc2c2cnn(CC(=O)NCCc3cc(OC)ccc3OC)c(=O)c21	-16%	3%[46.1 µM]
Cc1ccc(NC(=O)CSc2nnc(-c3cc4occc4n3C)n2-c2ccccc2C)c(C)c1	5%	-23%[46.1 µM]
COc1ccccc1CNC(=O)Cn1c(-c2cccs2)cc2cc(F)ccc21	-3%	19%[46.1 µM]
CCCn1c2ccccc2c2cnn(CC(=O)NCc3ccccc3Cl)c(=O)c21	-18%	18%[46.1 µM]
Cc1cccc(Cn2c(SCc3ccc(C(=O)NC4CCCC4)cc3)nc3cccnc32)c1	-1%	?
CCc1ccc(S(=O)(=O)c2cn(CC)c3cc(N4CCOCC4)c(F)cc3c2=O)cc1	-8%	9%[46.1 µM]
CCOC(=O)c1ccc(NC(=O)CN2C(=O)c3cccnc3Oc3ccc(Cl)cc32)cc1	5%	-20%[46.1 µM]
N#Cc1ccc(NC(=O)COCc2cc(-c3ccco3)on2)cc1	-6%	3%[46.1 µM]
O=C(Nc1ccccc1C(F)(F)F)N1CCC(CN2CCc3ccccc3C2)CC1	2%	16%[46.1 µM]
O=C(c1nc(-c2ccc(Cl)cc2)n2c1CCCCC2)N1CCN(c2ccccc2)CC1	?	-6%[46.1 µM]
CCOC(=O)c1ccccc1NC(=O)N1CCC(CN2CCCCC2)CC1	-16%	-1%[46.1 µM]
COc1ccc(C)cc1NC(=O)CN1C(=O)COc2ccc(S(=O)(=O)NC3CCCC3)cc21	29%	-7%[46.1 µM]
Cc1ccc(CNC(=O)Cn2cc(S(=O)(=O)Cc3ccccc3Cl)c3ccccc32)cc1	-7%	-16%[46.1 µM]
CCn1cc(S(=O)(=O)c2ccc(Cl)cc2)c(=O)c2cc(F)c(N3CCOCC3)cc21	-19%	0%[46.1 µM]
Cc1ccc(NC(=O)CN2C(=O)c3cccnc3Oc3ccc(Cl)cc32)cc1	-8%	?
COc1ccc(-c2cn3nc(N4CCCC(C(=O)NCCCOC(C)C)C4)sc3n2)cc1 (configuration not stated)	-20%	?
COc1cccc(NC(=O)Cn2cnc3c(nc4n3CCCCC4)c2=O)c1	-17%	18%[46.1 µM]
CSc1ncc(C(=O)Nc2ccc(Cl)cc2C(=O)c2ccccc2)c(C)n1	19%	-1%[46.1 µM]
O=C(Cn1c(-c2cccs2)cc2cc(Cl)ccc21)N1CCN(c2ccccc2)CC1	-9%	-6%[46.1 µM]
O=C(COCc1cc(-c2cccs2)on1)N1CCN(c2ccc(F)cc2)CC1	?	?
CCCn1c2ccccc2c2cnn(CC(=O)NCCCOC(C)C)c(=O)c21	-10%	20%[46.1 µM]
Cc1cccc(NC(=O)CN2C(=O)c3cccnc3Oc3ccc(Cl)cc32)c1C	-6%	3%[46.1 µM]
CCCS(=O)(=O)N1CC(=O)N(c2ccc(C)cc2C)C(C)(C(=O)NC2CCCCCC2)C1 (configuration not stated)	13%	13%[46.1 µM]

Entries of single compounds, looked up by structure.
`COc1ccc(C)cc1NC(=O)CN1C(=O)COc2ccc(S(=O)(=O)NC3CCCC3)cc21` in the list: StopGo reporter = 29%; Lassa entry inh = -7%[46.1 µM]
`CCOC(=O)c1ccc(NC(=O)C2=C(C)C(=O)OC23CCCCCC3)cc1` in the list: StopGo reporter = -12%; Lassa entry inh = -13%[46.1 µM]

Following part
SMILES	StopGo reporter	Lassa entry inh
O=C(Cn1ncc2c([nH]c3ccccc32)c1=O)Nc1cccc(C(F)(F)F)c1	-8%	24%[46.1 µM]
CCOc1ccc(CNS(=O)(=O)c2ccc3[nH]c4c(c3c2)CCCC4)cc1OC	-18%	0%[46.1 µM]
O=C(Cn1cc(S(=O)(=O)Cc2ccccc2Cl)c2ccccc21)Nc1cccc(C(F)(F)F)c1	-12%	-1%[46.1 µM]
CCN(C(=O)CSc1nnc(-c2cc3occc3n2C)n1-c1ccccc1C)c1ccccc1	5%	?
Cc1ccc(CNC(=O)c2cc(NS(=O)(=O)c3ccc(C)cc3)ccn2)cc1	-2%	9%[46.1 µM]
CCCn1cc(S(=O)(=O)c2cc(C)ccc2C)c(=O)c2cc(F)c(N3CCOCC3)cc21	34%[activator]	-4%[46.1 µM]
Cc1ccc(NC(=O)Cn2c(SCc3ccc(F)cc3)nc3cccnc32)cc1F	25%	29%[46.1 µM]
COc1ccc(CCNC(=O)Cn2cc(S(=O)(=O)Cc3ccc(F)cc3)c3ccccc32)cc1OC	-19%	-8%[46.1 µM]
Cc1ccc(N2CCN(c3nc4c(S(=O)(=O)c5ccc(C)c(C)c5)nnn4c4ccccc34)CC2)c(C)c1	2%	8%[46.1 µM]
CCN1CCC(N(Cc2ccc(F)cc2)C(=O)Nc2ccc(C)c(F)c2)CC1	-17%	-6%[46.1 µM]
Cc1ccc(C)c(NC(=O)Cn2cc(S(=O)(=O)Cc3cccc(Cl)c3)c3ccccc32)c1	12%	-3%[46.1 µM]
Cc1ccc(NC(=O)CC(C)S(=O)(=O)c2ccc3c(c2)NC(=O)CO3)c(C)c1 (configuration not stated)	-20%	0%[46.1 µM]
CCn1cc(S(=O)(=O)c2cccc(C)c2)c(=O)c2cc(F)c(N3CCCCC3C)cc21 (configuration not stated)	6%	15%[46.1 µM]
CCCCSCCCNC(=O)CN1C(=O)c2cccnc2Oc2ccc(Cl)cc21	-8%	0%[46.1 µM]
Cc1oc(-c2ccccc2Cl)nc1CSc1nc2ncccc2[nH]1	-23%	10%[46.1 µM]
Cc1ccc(Cl)cc1N1CCN(C(=O)COCc2cc(-c3ccc4c(c3)OCO4)on2)CC1	-3%	2%[46.1 µM]
CCS(=O)(=O)N1CC(=O)N(c2cccc(C)c2C)C(C)(C(=O)NC2CCCCC2)C1 (configuration not stated)	-6%	-7%[46.1 µM]
Cc1ccc(C)c(NC(=O)CN2C(=O)c3cccnc3Oc3ccc(C)cc32)c1	-8%	-6%[46.1 µM]
CCS(=O)(=O)N1CC(=O)N(c2cc(C)cc(C)c2)C(C)(C(=O)NC2CCCCC2)C1 (configuration not stated)	0%	0%[46.1 µM]
CCOC(=O)c1cccc(NC(=O)C(CC(C)C)N2Cc3ccccc3C2=O)c1 (configuration not stated)	-1%	0%[46.1 µM]
O=C(c1cc(-c2ccc(Br)cc2)n[nH]1)N1CCN(S(=O)(=O)c2ccc(Cl)s2)CC1	-19%	21%[46.1 µM]
COc1ccc(Nc2cc(C)c3cc(NC(=O)Cc4ccc(Cl)cc4)ccc3n2)cc1	-25%	1%[46.1 µM]

Reformatted: entries from further up.
Compound | StopGo reporter | Lassa entry inh
Cc1ccc(CNC(=O)Cn2cc(S(=O)(=O)Cc3ccccc3F)c3ccccc32)cc1 | -1% | 14%[46.1 µM]
Cc1ccc(C)c(NC(=O)C(CC(C)C)N2Cc3ccccc3C2=O)c1 (configuration not stated) | -5% | -6%[46.1 µM]
CC1=C(C(=O)Nc2cc(C)ccc2C)C2(CCCCCC2)OC1=O | -1% | 1%[46.1 µM]
COC(=O)c1ccc(Cl)cc1NC(=O)N(Cc1ccc(OC)cc1)C1CCN(C(C)=O)CC1 | -6% | 12%[46.1 µM]
CNC(=O)Cn1cc(S(=O)(=O)Cc2ccccc2F)c2ccccc21 | 4% | ?
CCn1cc(S(=O)(=O)c2ccccc2)c(=O)c2cc(F)c(N3CCN(c4ccccc4)CC3)cc21 | -22% | 25%[46.1 µM]
O=C(NCc1ccco1)c1ccc(Cn2c(SCc3ccccc3)nc3cccnc32)cc1 | 3% | 22%[46.1 µM]
CCOc1ccc(NC(=O)N2CCC(CN3CCc4ccccc4C3)CC2)cc1 | -5% | 15%[46.1 µM]
O=C(NCc1cccc(F)c1)C1CCN(c2nn3cc(-c4ccc(F)cc4)nc3s2)CC1 | 50%[activator] | 12%[46.1 µM]
CC(C)c1ccc(NC(=O)Cn2cc(S(=O)(=O)Cc3cccc(Cl)c3)c3ccccc32)cc1 | -4% | -3%[46.1 µM]
Cc1ccc(CNC(=O)C2CCCN(c3nn4cc(-c5ccc(C)cc5)nc4s3)C2)cc1 (configuration not stated) | 8% | ?
Cc1ccc(CSc2nc3cccnc3n2Cc2ccc(C(=O)NC3CC3)cc2)cc1 | 38%[activator] | 22%[46.1 µM]
Cc1cccc(CNC(=O)c2ccc(Cn3c(SCc4cccc(F)c4)nc4cccnc43)cc2)c1 | -19% | -10%[46.1 µM]
CCOC(=O)c1ccc(NC(=O)C2=C(C)C(=O)OC23CCCCCC3)cc1 | -12% | -13%[46.1 µM]
COc1ccc(Cl)cc1Nc1ncnc2c1nc1n2CCCC1 | 0% | ?
Cc1cc(C)cc(NC(=O)N2CCC(CN3CCOCC3)CC2)c1 | 9% | -1%[46.1 µM]
